# Screening results deposited in PubChem by Center for Chemical Genomics, University of Michigan.
# CDC25B-CDK2 inh: human CDC25B-CDK2/CyclinA binding inhibition. z-score (concentration not given with the values). P30305+P24941. AID 1259370. 0.72% of 94,000 active. HTRF CDC25B-CDK2/CyclinA binding, anti-His/anti-Flag; hits give high values;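 note: score is relative to mean and SD of negative controls; strong numbers were not always called active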
# TAR Tat displ: HIV-1 TAR-Tat binding disruption | HIV-1 TAR RNA, Tat peptide displacement FRET; hits give high values | z-score (no concentration beside the values) | 0.6% of 100,000 active | AID 1259389;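 note: score is relative to mean and SD of negative controls; some compounds called inactive have numbers as strong as hits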
# An asterisk follows results filed as active; x = no result given.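 Rule for the calls: active = z-score from 3 up in half or more of its runs; inactive = the rest.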
SMILES,CDC25B-CDK2 inh,TAR Tat displ
Cc1ccc(N2C(=O)c3cccnc3C2Nc2ccc(Cl)cc2C)cc1 (configuration not stated),x,1.7
CCOC(=O)c1c(C)n(S(C)(=O)=O)c2ccc(N(C(=O)c3cccs3)S(C)(=O)=O)cc12,-0.36,1
CC(=O)OCC1=C(C(=O)O)N2C(=O)C(NC(=O)c3ccccc3F)C2SC1 (configuration not stated),-0.64,-0.77
CCOC(=O)COc1ccccc1/C=C(/C#N)S(=O)(=O)c1cccs1,0.64,x
O=C(NC1CCCC1)c1cccc(-n2cnnc2)n1,x,0.61
O=C(NC1CCCC1)C1C2C=CC3(CN(Cc4cccs4)C(=O)C13)O2 (configuration not stated),-2.6,x
COc1ccc(C2CC(c3ccc(C)cc3)=NN2S(=O)(=O)c2ccccc2)cc1 (configuration not stated),-0.95,x
CCCCN(C)C(=O)Cn1ncc2c([nH]c3ccccc32)c1=O,x,1.2
CCOc1ccc(-c2cn3c4ccccc4n(CCN(CC)CC)c3n2)cc1,-1.9,x
COc1ccc(S(=O)(=O)N2CCCC2C(=O)NC2=NCCS2)cc1 (configuration not stated),0.82,x
CN(C)CCN1C(=O)c2cc3occc3n2CC1(C)C(=O)NC1CCCCC1 (configuration not stated),x,2.4
COCCCN1C(=O)c2cc3occc3n2CC1(C)C(=O)NC1CCC(C)CC1 (configuration not stated),x,3.1
CCCNC(=O)N1c2ccccc2NC2=C(C(=O)CC(C)(C)C2)C1c1cccs1 (configuration not stated),x,-0.45
COC(=O)C1=C(C(=O)OC)C2(OC1c1ccccc1C)C(=O)c1ccccc1C2=O (configuration not stated),-1.5,-0.13
Cc1ccc(-c2nnc(N3CCOCC3)c3ccccc23)cc1S(=O)(=O)NC(C)(C)CO,-2.2,0.64
O=S(=O)(c1ccc(F)cc1F)N(Cc1cc(CN2CCOCC2)cs1)c1ccc(Cl)cc1,x,-0.55
CCOC(=O)c1cc(C)nc(Sc2ccc(NC(C)=O)cc2)n1,-2.8,x
Cc1ccc(CCNc2ncnc3onc(C)c23)cc1,x,0.71
Cc1ccc(CNS(=O)(=O)c2ccc(-c3ccc(=O)[nH]n3)o2)o1,x,1.7
OC(COc1c(F)cc(Br)cc1F)CN1CCN(c2ccc(F)cc2)CC1 (configuration not stated),-1.5,x
O=C(O)c1ccc(-n2nnnc2SCc2cccc(Br)c2)cc1,-2,-1.5
COC(=O)c1cc(S(=O)(=O)NC(C)(C)C)c[nH]1,x,1.9
S=c1[nH]c2ccccc2s1,x,1.7
Cc1cccc(Nc2cc(C)nc3ncnn23)c1,-1.6,-0.38
Cc1ccc2cc(F)ccc2[n+]1C,0.46,x
NC(=O)CSc1nc2c(cnn2-c2ccc(Cl)cc2)c(=O)[nH]1,x,1
Clc1ccc(OCCSc2nnnn2C2CCCCC2)cc1,-2.2,-0.26
Cn1c(SCC(=O)c2ccccc2)nnc1-c1cccnc1,x,0.66
Cn1c(=O)c2c(ncn2CC(=O)N2CCCCCC2)n(C)c1=O,-2.1,x
O=c1[nH]c2ccccc2cc1CN(c1ccccc1)S(=O)(=O)c1ccccc1,-3.9,1.9
Cn1nc(C(F)(F)F)c(-c2ccccc2)c1N1C(=O)C2C3C=CC(C3)C2C1=O (configuration not stated),-1.4,x
O=C(Nc1c(C(=O)N2CCN(c3ccc(F)cc3)CC2)oc2ccccc12)C1CC1,x,0.64
CSc1nnc2c(n1)OC(c1ccc(Br)cc1)N(C(C)=O)c1ccccc1-2 (configuration not stated),-1.5,0.67
O=C1C2C(c3ccccc3)OC3(C(=O)c4ccccc4C3=O)C2C(=O)N1Cc1ccc(Cl)cc1 (configuration not stated),-0.33,-1.3
C=CCOc1ccc(C2C3=C(CCCC3=O)NC3=C2C(=O)CCC3)cc1,16*,-0.25
COC(=O)c1cnc(Sc2ccccc2N)c([N+](=O)[O-])c1,0.11,x
C=CCN(c1ccccc1)S(=O)(=O)c1ccc2c(c1)NC(=O)C(C)S2 (configuration not stated),x,1.8
CCC(=O)N1N=C(c2ccccc2)CC1c1cc2cc3c(cc2nc1Cl)OCCO3 (configuration not stated),-0.51,x
Cc1cccc(-c2noc(NC(=O)NNc3c(Cl)cccc3Cl)n2)c1,-1.3,x
CCCCCCNC(=O)NC(CC(=O)O)c1ccccc1 (configuration not stated),-1.4,x
Cc1cc(C)c(-c2c(N3CCCN(Cc4ccc(F)cc4)C3)c(=O)c2=O)cc1C,x,0.1
CC(C)CNC1CC(=O)N(c2ccc(Cl)cc2)C1=O (configuration not stated),0.07,0.01
COc1ccc(CNCCSc2nnnn2-c2ccccc2)c(OC)c1,-2,1.6
CCOC(=O)c1c(C)c2c(=O)[nH]cnc2n1-c1ccccc1,-2.6,x
Brc1ccc(-c2nnc3sc(CN4CCc5ccccc5C4)cn23)cc1,-0.81,x
O=C(c1ccc(CSc2nc3ccncc3[nH]2)cc1)N1CCN(C2CCCCC2)CC1,-1.5,-2.7
CN(C)S(=O)(=O)N(CC(=O)Nc1ccc2c(c1)OCCO2)c1ccccc1,-2.1,0.61
Cc1csc(NC(=O)Nc2cn(C)c(=O)c3ccccc23)n1,x,0.54

# Of the compounds above, these have a carbonyl joined to an NH by a bond outside any ring.
SMILES,CDC25B-CDK2 inh,TAR Tat displ
CC(=O)OCC1=C(C(=O)O)N2C(=O)C(NC(=O)c3ccccc3F)C2SC1 (configuration not stated),-0.64,-0.77
O=C(NC1CCCC1)c1cccc(-n2cnnc2)n1,x,0.61
O=C(NC1CCCC1)C1C2C=CC3(CN(Cc4cccs4)C(=O)C13)O2 (configuration not stated),-2.6,x
COc1ccc(S(=O)(=O)N2CCCC2C(=O)NC2=NCCS2)cc1 (configuration not stated),0.82,x
CN(C)CCN1C(=O)c2cc3occc3n2CC1(C)C(=O)NC1CCCCC1 (configuration not stated),x,2.4
COCCCN1C(=O)c2cc3occc3n2CC1(C)C(=O)NC1CCC(C)CC1 (configuration not stated),x,3.1
CCCNC(=O)N1c2ccccc2NC2=C(C(=O)CC(C)(C)C2)C1c1cccs1 (configuration not stated),x,-0.45
CCOC(=O)c1cc(C)nc(Sc2ccc(NC(C)=O)cc2)n1,-2.8,x
NC(=O)CSc1nc2c(cnn2-c2ccc(Cl)cc2)c(=O)[nH]1,x,1
O=C(Nc1c(C(=O)N2CCN(c3ccc(F)cc3)CC2)oc2ccccc12)C1CC1,x,0.64
Cc1cccc(-c2noc(NC(=O)NNc3c(Cl)cccc3Cl)n2)c1,-1.3,x
CCCCCCNC(=O)NC(CC(=O)O)c1ccccc1 (configuration not stated),-1.4,x
CN(C)S(=O)(=O)N(CC(=O)Nc1ccc2c(c1)OCCO2)c1ccccc1,-2.1,0.61
Cc1csc(NC(=O)Nc2cn(C)c(=O)c3ccccc23)n1,x,0.54

# (listing goes on)
SMILES,CDC25B-CDK2 inh,TAR Tat displ
O=C(Cn1c(=O)oc2ccccc21)N(Cc1ccc(F)cc1)Cc1cccnc1,x,1.1
Cc1oc2ncnc(N3CCOCC3)c2c1C(=O)N1CCN(c2ncccn2)CC1,x,2.1
Cc1cc(OCc2nc(-c3ccncc3)no2)ccc1Cl,-1,0.75
COc1cccc2c(=O)c(NC(=O)NCCCN3CCN(C)CC3)c[nH]c12,-1,0.81
CSC1=N/C(=C\c2ccc([N+](=O)[O-])s2)C(=O)N1Cc1ccco1,-2.3,x
N#C/C(=N\OS(=O)(=O)c1ccc(Cl)cc1)S(=O)(=O)c1cccs1,3.6,x
CCOC(=O)c1cn[nH]c1S(=O)(=O)Nc1ccc2c(c1)OCCO2,x,-0.33
Cc1cccc(-c2noc(COc3cc(C)ccc3C)n2)c1,0.15,x
CC(C)Cn1nc(-c2ccccc2)c2ccccc2c1=O,-0.63,x
COc1ccc(NS(=O)(=O)c2cc3c4c(c2)C(C)C(=O)N4CCC3)cc1 (configuration not stated),x,1.2
CCc1nn(CC(=O)N2CCN(C(=O)c3ccco3)CC2)c(=O)c2cc3occc3n12,0.11,2.2
Cn1nc(Oc2nc(N3CCCCC3)nc(N3CCOCC3)n2)ccc1=O,-2.4,2.7
COc1ccccc1CNC(c1nnc(-c2ccccc2)o1)c1ccccc1F (configuration not stated),x,-0.11
CCOc1ccccc1NC(=O)C(CC)Sc1nnc(CC)n2c1cc1occc12 (configuration not stated),x,2.7
O=S(=O)(c1ccc(Cc2ccc(S(=O)(=O)N3CCCCC3)cc2)cc1)N1CCCCC1,x,1.3
Cc1ccc2c(c1)C(O)(C1COC(C)(C)CC1=O)C(=O)N2 (configuration not stated),1,x
O=C(Nc1nnc(S(=O)(=O)N2CCc3ccccc32)s1)c1ccc(Br)cc1,-3.1,-0.15
COCCCNC(=O)Cn1ncn2c(cc3cc(F)ccc32)c1=O,-0.93,-0.62
O=C(NC1(C(F)(F)F)Oc2ccccc2O1)N1CCN(c2ccc(F)cc2)CC1,3.2,x
FC(F)(F)C1=CC=NCCN1,1,x
Cc1c(NS(=O)(=O)c2ccc(S(=O)(=O)c3ccccc3)s2)c(=O)n(-c2ccccc2)n1C,0.94,x
CCOC(=O)c1[nH]c(=O)[nH]c1CSc1nc(C)cc(C)n1,-1.4,x
Fc1ccc(-c2nn3c(Cn4nnc5ccccc54)nnc3s2)cc1,-2.1,3.2
O=C(Nc1ccccc1Cl)c1csc2c1CCCC2,-3.3,0.72
Cc1oc(-c2cccc(Br)c2)nc1CSc1nncn2c1cc1occc12,x,0.58
CC(=O)N1c2ccc(S(=O)(=O)N3CCCC3)cc2CC1C(=O)NCCN(C)C1CCCCC1 (configuration not stated),x,1.6
CCCCc1nnc(NC(=O)CSCc2cc(=O)n3nc(C4CCCCC4)sc3n2)s1,x,0.02
Cc1cc(N2CCC(C)CC2)n2nc(-c3ccccc3)nc2n1,0.53,0.85
Cc1nc(-c2cccnc2)cs1,-1.6,x
CC(=O)N1CC(C)Sc2ccc(S(=O)(=O)NCCC3=CCCCC3)cc21 (configuration not stated),x,1.8
COc1ccc(-c2cc(C(F)(F)F)nc(NCc3cccs3)n2)cc1,-0.96,x
Cc1ccc2oc(C(=O)Nc3nonc3C)c(C)c2c1,-1.2,-0.28
CC(=O)C(C)(C)OC(=O)NCc1ccccn1,-2.4,x
COc1cc(OC)cc(-c2noc(CCn3c(=O)[nH]c4ccccc4c3=O)n2)c1,-2.6,1
CC1CN(C(=O)CCC(=O)NC2CCCC2)c2cc(Cl)ccc2O1 (configuration not stated),0.8,-0.15
Cc1[nH]nc(-c2ccc(S(=O)(=O)N3CCCCC3)s2)c1C,x,-0.36
COc1ccccc1C(=O)c1ccccc1,-3,x
O=c1c(O)c(NC2CCCC2)c1=O,x,-0.55
CCCc1cc(=O)oc2cc3occ(-c4ccc(OC)cc4)c3cc12,-1.1,x
O=C(c1cnn(-c2ccccc2)c1-n1cccc1)N1CCC(N2CCCCC2)CC1,-0.91,0.6
COc1ccc(Oc2coc3cc(OC(=O)c4cccs4)ccc3c2=O)cc1,-1.9,-1.5
C=CCn1c(=O)oc2ccc(C(=O)OCC)cc21,x,1.7
CCN(CC)CCCNC(=O)C1CCCN(c2ncnc3onc(C)c23)C1 (configuration not stated),x,-0.16
Cc1csc2nc(COC(=O)C(C)C)cc(=O)n12,x,0.98
CC(O)CNc1ncnc2c1c(-c1ccccc1)cn2-c1cccc(Cl)c1 (configuration not stated),x,0.07
C=CCOC(=O)C1=C(C)N=C2SCCC(=O)N2C1c1cccc(OC)c1 (configuration not stated),-0.14,0.11
CCCCC(=O)Nc1ccc(OCc2cc(=O)n3nc(C)sc3n2)cc1,0.32,-0.62
CCS(=O)(=O)c1nc(S(=O)(=O)c2ccc(Cl)cc2)c(N2CCC(O)CC2)s1,-0.07,1.4
COc1cc2c(cc1OC)Cc1cc(OC)c(OC)cc1Cc1cc(OC)c(OC)cc1C2,-1.8,x
O=C(O)C(O)C(O)c1nc2ccccc2[nH]1 (configuration not stated),-1.3,x
Cc1cccc(Oc2nc3ccccc3n3c(C)nnc23)c1C,-0.53,x
COc1cc(C2c3c(oc4ccc(C)cc4c3=O)C(=O)N2Cc2ccc3c(c2)OCO3)ccc1O (configuration not stated),2,2.5
CN(C)S(=O)(=O)N(CC(=O)Nc1ccc(Br)c(Cl)c1)c1ccccc1,-0.29,-0.56
COC(=O)c1cc(OC)c(OC)c(OC)c1N=C/C(C(C)=O)=C(\C)O,0.08,x
CC(C)c1nnc(NC(=O)c2nn(-c3cccc(Cl)c3)ccc2=O)s1,-0.1,0.56
c1cn2c(NC3CCCCC3)c(-c3ccc(N4CCOCC4)cc3)nc2cn1,-0.41,-3.3
COc1ccc(C2C=C(c3ccc(Br)s3)Nc3nnnn32)c(OC)c1 (configuration not stated),-1.6,x
COc1cccc(Nc2nc(C)c3nnn(-c4cccc(OC)c4)c3n2)c1,0.4,-1.7
O=S(=O)(NCC1COc2ccccc2O1)c1cccc2cccnc12 (configuration not stated),-0.54,x
COc1ccc(-c2nn3c(Cn4nnc5ccccc54)nnc3s2)cc1OC,-1.1,2.3
# Continuation.
SMILES,CDC25B-CDK2 inh,TAR Tat displ
COCCn1c(=O)c2ccccc2c2ccccc2c1=O,-0.9,x
CC1Sc2ccc(S(=O)(=O)N3CCN(C)CC3)cc2NC1=O (configuration not stated),x,1.5
CCCCCCCNC(=O)C1CCCN(S(=O)(=O)CC)C1 (configuration not stated),x,1.5
CCN(CC)S(=O)(=O)c1ccc2c(c1)CC(C)N2C(=O)C1CC1 (configuration not stated),x,1.3
CSc1cccc(NC(=O)CSc2nc(-c3ccccc3)nc3cc(=O)[nH]n23)c1,x,-0.24
O=C(CCc1nnc2ccc(N3CCOCC3)nn12)N1CCN(c2ccccc2)CC1,x,0.34
CCc1nnc2sc(COc3ccc(OC)cc3)nn12,-0.71,-1.2
N#Cc1c(N2C(=O)C3C4C=CC(CC4)C3C2=O)sc2c1CCCC2 (configuration not stated),-0.72,x
Cc1ccccc1OCC(=O)Nc1ccc(-c2nc3ccccc3o2)cc1,-1.8,x
CCOc1ccc(-n2nnnc2CNS(=O)(=O)CC)cc1,x,0.8
CSc1ccc(CNC(=O)Cn2ncn3c(cc4cc(F)ccc43)c2=O)cc1,2.6,0.22
